Screening results: PubChem, ICCB-Longwood Screening Facility, Harvard Medical School
Ecoli growth: E. coli growth inhibition, primary screen, OD600; OD600 absorbance (concentration not given with the values); Escherichia coli growth, 23 h; hits give low values; 0.21% of 330,000 active;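 active = OD600 absorbance below the run mean of sample wells minus 3.6 SD, in any replicate, cut at about 0.56 in these data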;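 note: stock transfer was 300 nL into about 60 µL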
Starred values were filed as active, the others as inactive; & = joins results of further samples. A portion of the library. The share of hits here may be higher or lower than overall.

#	SMILES	Ecoli growth
1	COc1cccc(C=NNc2nnc3c(n2)[nH]c2ccccc23)c1OC	0.62
2	Oc1ccc(CC2CNCCN2CC2CCCCC2)cc1 (stereo unspecified)	0.67
3	CCN1CC2C3C(=O)N(C)C(=O)C3[C@](C)(C1=O)N2C(=O)c1ccc(Br)cc1 (stereo partly specified)	0.69
4	Cc1ccc(C=NNC(=O)c2cccc(S(=O)(=O)Nc3ccccc3Cl)c2)o1	0.59
5	C=CCC(Cc1ccc(F)cc1)C(=O)OCC1CCCN1C(=O)C(CC=C)CC(=O)N(CCO)Cc1ccccc1 (stereo unspecified)	0.66&0.71
6	CC1OC(OCC2OC(Oc3cc(O)c4c(=O)cc(-c5ccc(O)c(O)c5)oc4c3)C(O)C(O)C2O)C(O)C(O)C1O (stereo unspecified)	0.7
7	N#CCCn1cc(C=N/N=C2\NC(=O)C(CC(=O)O)S2)c(-c2ccc(F)cc2)n1 (stereo unspecified)	0.69
8	COc1ccccc1C=NNS(=O)(=O)c1ccccc1	0.66
9	COC(=O)c1ccc(CN2C(C(=O)OC)C[C@@]3(O)C(O)C(O)C(O)CC23)cc1 (stereo partly specified)	0.69&0.68
10	O=C(NN=Cc1ccccn1)c1ccc([N+](=O)[O-])cc1Cl	0.65
11	CC(=O)C(=NNc1ccc(C)cc1)Sc1nncn1C	0.65
12	c1ccc(-c2ccc(CN3CC4C(c5ccccc5)C5(c6ccccc6)CC4(C5)C3c3ccccc3)cc2)cc1 (stereo unspecified)	0.74
13	Cc1ccc(-c2cc(C(=O)NN=Cc3ccc(Cl)cc3)n[nH]2)o1	0.66
14	Cc1c(C=NNC(=O)c2cc3ccccc3o2)c2ccccc2n1C	0.73
15	Cc1nn(-c2ccccc2)c(N2CCCC2)c1C=NO	0.72
16	Cc1nc2scc(-c3ccccc3)c2c(=O)n1N=Cc1ccco1	0.7
17	O=C(Nc1ccccc1)ON=C1CCCc2occc21	0.61
18	COc1ccc(C(=O)NN=Cc2ccc(OC)c(COc3ccc(F)cc3)c2)cc1	0.71
19	COc1ccc(OC)c(C(O)=CC(=O)C(=O)Nc2cc(C)ccc2OC)c1	0.64
20	CC(CCc1ccccc1)=NNC(=O)c1ccc(CN2CCOCC2)cc1	0.64

7 entries from above, arranged by length of the SMILES, low to high.
#	SMILES	Ecoli growth
17	O=C(Nc1ccccc1)ON=C1CCCc2occc21	0.61
15	Cc1nn(-c2ccccc2)c(N2CCCC2)c1C=NO	0.72
16	Cc1nc2scc(-c3ccccc3)c2c(=O)n1N=Cc1ccco1	0.7
20	CC(CCc1ccccc1)=NNC(=O)c1ccc(CN2CCOCC2)cc1	0.64
13	Cc1ccc(-c2cc(C(=O)NN=Cc3ccc(Cl)cc3)n[nH]2)o1	0.66
18	COc1ccc(C(=O)NN=Cc2ccc(OC)c(COc3ccc(F)cc3)c2)cc1	0.71
12	c1ccc(-c2ccc(CN3CC4C(c5ccccc5)C5(c6ccccc6)CC4(C5)C3c3ccccc3)cc2)cc1 (stereo unspecified)	0.74

Other compounds:
#	SMILES	Ecoli growth
21	S=C(NCCc1ccccc1)NN=Cc1ccccc1Cl	0.69
22	CCOC(=O)NN=C(C)c1ccc(C)o1	0.66
23	Cc1occc1C(=O)NN=Cc1cccc2ccccc12	0.68
24	CCOC(=O)C=c1sc(=Cc2sccc2C)c(=O)n1CC(=O)NCc1ccc(C)cc1	0.63
25	CC(=NNC(=O)CC#N)c1ccc(Oc2ccccc2)cc1	0.7
26	Oc1ccc(C=NNc2nncc(-c3ccccc3)n2)cc1	0.67
27	COc1ccc(NC(=O)C(C#N)=Cc2cc(OC)c(OCc3ccc(C(=O)O)cc3)cc2Br)cc1	0.67
28	CCCOc1ccc(C=NNc2cccc([N+](=O)[O-])c2)c(O)c1	0.7
29	CCOc1ccc(C=NNc2cc(C)nc(N3CCOCC3)n2)cc1	0.66
30	O=C(COc1ccccc1)NN=Cc1cc2c(cc1[N+](=O)[O-])OCO2	0.69
31	C#CCOCCOCCOCCNc1nc(N2CCN(C(=O)C(Cc3ccc(O)cc3)n3cc(CCO)nn3)CC2)nc(N2CCN(C(=O)C(C(C)CC)n3cc(CCCN=C(N)N)nn3)CC2)n1 (stereo unspecified)	0.7
32	CCCOc1ccc(-c2c(C(=O)NN=Cc3ccc(OC)cc3)nnn2-c2nonc2N)cc1	0.73
33	CC(=NNC(=O)c1nn(C)cc1Br)c1ccncc1	0.68
34	CC=C1COC(C(=O)NCCCN2CCCC2=O)(C(F)(F)F)C=C1C=C(C)C (stereo unspecified)	0.68
35	O=C(CNC(=O)C1COc2ccccc2O1)NN=Cc1cccc(O)c1 (stereo unspecified)	0.69
36	CC12CCC(C(=O)N(CSC(=S)NN=Cc3ccccc3O)C1=O)C2(C)C (stereo unspecified)	0.7
37	CCOc1ccc(C(CCC(=O)O)=NNC(=O)c2cccc(S(=O)(=O)Nc3ccccc3OC)c2)cc1	0.7
38	COc1ccc(C(C)=NNC(=O)CNC(=O)c2cccs2)cc1OC	0.69
39	Cn1cccc1C=NNC(=O)Cc1cccs1	0.63
40	Cn1c(Cl)c(C=NOC(=O)C(C)(C)C)c2ccccc21	0.69
41	CC1CC2C3CCC4=CC(=O)C=C[C@]4(C)[C@@]3(F)C(O)C[C@]2(C)C1C(=O)CO (stereo partly specified)	0.71
42	CCC1CC=CC2C1C(=O)N(Cc1ccccc1)C2c1ccc(C(F)(F)F)cc1 (stereo unspecified)	0.7
43	O=C(C=Cc1c(Cl)nc2ccccn12)N1CCN(c2ccccc2F)CC1	0.72
44	CC(Cn1cnc([N+](=O)[O-])n1)=NNC(=O)c1ccccc1O	0.68
45	Fc1ccc(C(c2ccc(F)cc2)N2CCN(CC=Cc3ccccc3)CC2)cc1	0.65
46	C/C(C=Nn1c(-c2ccco2)n[nH]c1=S)=C\c1ccco1	0.69
47	COc1ccc(C=NNC(=S)Nc2ccccc2)cc1COc1ccc(F)cc1	0.72
48	COc1ccc(C=NNC(=O)c2cccc(C(=O)NN=Cc3ccc(OC)c(OC)c3)n2)cc1OC	0.68
49	CON=CC(=NNc1ccc(OC)cc1)C(=O)c1ccccc1	0.76
50	COc1ccc(OC)c(C=NNC(=O)CN2CCSCC2)c1	0.67
51	COc1ccc(OCC(=O)NN=C2CCc3ccccc32)cc1	0.73
52	COc1cc(C=NNC(=S)Nc2cccc(S(=O)(=O)N(C)C)c2)ccc1O	0.68
53	CC(C)(C)N1C(=O)C2C(c3ccc(Br)cc3)N3C(=O)N(c4ccc(Br)cc4)C(=O)[C@@]3(Cc3ccccc3)C2C1=O (stereo partly specified)	0.69
54	CC(=NNc1ccc(S(=O)(=O)N2CCOCC2)cc1[N+](=O)[O-])C(C)C	0.69
55	CC[C@@]12C(=O)N(c3cccc(C)c3)C(=O)N1C(c1ccc(Br)cc1)C1C(=O)N(C(C)(C)C)C(=O)C12 (stereo partly specified)	0.69
56	Cc1ccccc1C(NC(=O)OC(C)(C)C)C(=O)OC(C)(C)C (stereo unspecified)	0.71
57	Cc1ccc(C=Nn2c(COc3ccccc3)n[nH]c2=S)cc1	0.68
58	Cc1[nH]n(-c2ccccc2)c(=O)c1C=NN(C)c1ccccc1	0.62
59	C=CCC(CC(=O)N(CCO)Cc1ccccc1)C(=O)NC(COC(=O)C(CC=C)CC(=O)OC(C)(C)C)c1ccccc1 (stereo unspecified)	0.63&0.71
60	CC1(C)OC(C(O)(c2ccccc2)c2ccccc2)C(C(O)(c2ccccc2)c2ccccc2)O1 (stereo unspecified)	0.7
61	Oc1ccc(Cl)cc1C=Nc1nccs1	0.66
62	C#CCOCCOCCOCCNc1nc(N2CCN(C(=O)C(C(C)CC)n3cc(C(N)CO)nn3)CC2)nc(N2CCN(C(=O)C(C(C)CC)n3cc(C(N)CC(C)C)nn3)CC2)n1 (stereo unspecified)	0.7
63	COc1ccccc1/C=C/C=Nn1c(-c2n[nH]c3c2CCC3)n[nH]c1=S	0.7
64	CC(=O)Nc1cccc(C(C)=NNC(=O)c2cccs2)c1	0.67
65	Cc1ccc(S(=O)(=O)N2CCN(CC(=O)NN=C/C(Cl)=C/c3ccccc3)CC2)cc1	0.65
66	CC(C=NN1CCN(Cc2ccc(C)cc2)CC1)=Cc1ccccc1	0.67
67	CCN1C(=O)C2C(c3ccc(C)cc3)N3C(=O)N(c4ccc(C(F)(F)F)cc4)C(=O)[C@@]3(CC(C)C)C2C1=O (stereo partly specified)	0.67
68	COc1ccc(NC(=O)N(C)CC2Oc3ccc(NC(=O)CCC(F)(F)F)cc3C(=O)N(C(C)CO)CC2C)cc1 (stereo unspecified)	0.71
69	CCOc1ccc(C2CC=C(C(=O)O)C(c3ccc(Cl)cc3)N2S(=O)(=O)c2ccc(C)cc2)cc1 (stereo unspecified)	0.71
70	CC(=NNS(=O)(=O)c1ccc(Cl)c([N+](=O)[O-])c1)c1cc2ccccc2o1	0.67

(next part)
#	SMILES	Ecoli growth
71	CCC(CC)NC(=O)CON=Cc1ccc(Cl)cc1Cl	0.71
72	Cc1ccccc1C(=O)Nc1ccc(C(=O)NN=Cc2ccncc2)cc1	0.64
73	CNC(=O)N(O)C1N(N=Cc2ccc(C)cc2)C(=S)SC1(C)C (stereo unspecified)	0.65
74	Cc1nnc(C)n1N=Cc1ccc(-c2ccccc2Cl)o1	0.63
75	COc1ccc(C=NNC(=O)c2ccncc2)cc1[N+](=O)[O-]	0.66
76	COc1ccc(C=c2sc3nc(-c4ccccc4)c(-c4ccccc4)n3c2=O)cc1OC	0.78
77	CC(C)c1ccc(/C=C2\CC/C(=C\C=NN(C)C)C2=O)cc1	0.68
78	O=C(NN=Cc1ccc(O)c([N+](=O)[O-])c1)C1CC1(c1ccccc1)c1ccccc1 (stereo unspecified)	0.74
79	COc1ccc2nc(N=CN(C)C)sc2c1	0.71
80	Nc1nnnn1CC(=O)NN=Cc1cccs1	0.63
81	CC(=NNC(=O)C(=O)Nc1ccc(C)cc1)c1ccncc1	0.68
82	NC(N)=NN=Cc1ccc(OS(=O)(=O)c2ccccc2)cc1	0.63
83	COC(=O)C1CC(c2ccccc2)C(C)C1(C)C (stereo unspecified)	0.58&0.71
84	O=c1c(-c2c(O)cc(O)c3c2OC(c2ccc(O)cc2)CC3)c(-c2ccc(O)cc2)oc2cc(O)cc(O)c12 (stereo unspecified)	0.67
85	O=C(Nc1ccc2c(c1)OCO2)C1CCCN1S(=O)(=O)c1cccc2cccnc12 (stereo unspecified)	0.71
86	COc1cccc(NC(=O)C2CCCN2S(=O)(=O)c2cccc3cccnc23)c1 (stereo unspecified)	0.67
87	COc1ccc(C2CC(=O)C=C(c3ccc(-c4ccccc4)c(F)c3)C2)cc1OC (stereo unspecified)	0.69
88	C#CCOCCOCCOCCNc1nc(N2CCN(C(=O)CCCCCCCCCCNC(=O)C(CCSC)n3cc(CCO)nn3)CC2)nc(N2CCN(C(=O)CCCCCCCCCCNC(=O)C(C(C)O)n3cc(C)nn3)CC2)n1 (stereo unspecified)	0.75
89	CC(=NNC(=O)Cn1nc2ccccc2n1)c1ccc(F)cc1	0.62
90	COc1cc(NN=C(C)c2ccc(N)cc2)nc(-c2ccccc2)n1	0.65
91	Cc1ccc(C=NNC(=O)c2nnn(-c3nonc3N)c2CNc2ccccc2)cc1	0.63
92	NC(=O)C[n+]1cccc(C=NO)c1	0.73
93	Cc1cc(C)n(Cc2cccc(C(=O)NN=Cc3ccncc3)c2)n1	0.66
94	Fc1cccc(CCN2CCNCC2Cc2ccccc2)c1 (stereo unspecified)	0.66
95	COc1ccc(C=NNC(=O)c2cc(=O)[nH]c3ccccc23)cc1OC	0.67
96	COCCCN1C(=O)C(=O)C(=C(O)c2ccc(OC(C)C)cc2)C1c1ccc(O)c(OC)c1 (stereo unspecified)	0.7
97	CCN1C(=O)C2C(c3ccc(OC)cc3)N3C(=O)CN(Cc4ccccc4)C(=O)[C@@]3(Cc3ccccc3)C2C1=O (stereo partly specified)	0.69
98	CC(CC(=O)Nc1cccc2c1CCCC2)=NNC(=O)c1ccccc1N	0.78
99	CC(=NNC(=O)CNc1ccc(C)cc1)c1ccc(Br)s1	0.67
100	CC1CN(C(C)CO)C(=O)c2cc(NC(=O)Cn3cnnn3)ccc2OC1CN(C)Cc1ccc(Oc2ccccc2)cc1 (stereo unspecified)	0.71
101	COc1cc(C=NNC(=O)Cn2cnc3ccccc3c2=O)ccc1O	0.66
102	COC(=O)NN=C/C=C/c1ccc2c(c1)OCO2	0.71
103	N#CCCn1cc(C=NNC(N)=S)c(-c2ccc(Br)cc2)n1	0.68
104	CC(=NNC(=O)c1nnn(-c2nonc2N)c1-c1cccs1)c1ccncc1	0.73
105	CCc1ccc(C=NN2CCN(c3ccccn3)CC2)cc1	0.7
106	Oc1ccc(C=NN2CCN(Cc3ccccc3)CC2)cc1	0.7
107	CC(=NNC(=O)C(O)c1ccccc1)c1ccc(Cl)cc1 (stereo unspecified)	0.64
108	Cc1nn(C)cc1C=NNC(=O)c1ccco1	0.68
109	CC(N=Nc1nc2ccccc2s1)=NNc1ccccc1O	0.71
110	O=C(CN1CCN(Cc2ccc(Cl)cc2)CC1)NN=Cc1cccc(F)c1	0.62

Continued (two carried over from the part before).
#	SMILES	Ecoli growth
109	CC(N=Nc1nc2ccccc2s1)=NNc1ccccc1O	0.71
110	O=C(CN1CCN(Cc2ccc(Cl)cc2)CC1)NN=Cc1cccc(F)c1	0.62
111	O=C(O)CC1SC(NN=Cc2ccc(Br)cc2)NC1=O (stereo unspecified)	0.69
112	COc1ccc(OCC(=O)NN=C(CCC(=O)O)c2cccs2)cc1	0.67
113	COc1ccc(C=NNc2cc(C)nc(N3CCOCC3)n2)cc1OC	0.63
114	COC(=O)c1ccc(C=NNC(=O)CNc2cccc(C)c2)cc1	0.7
115	CCc1ccc(C=NNC(=O)Cc2cccn2C)cc1	0.63
116	CC(C)n1cc(C=NNC(=O)COc2cccc3cccnc23)c2ccccc21	0.71
117	CCN1C(=O)/C(=C/c2cccs2)SC1=NS(=O)(=O)c1ccc(C)cc1	0.67
118	Cc1cc(C(=O)NN=Cc2cccc3ccccc23)c(C)o1	0.69
119	COc1ccc(O)c(C=NNc2nc(C)cc(-c3ccccc3)n2)c1	0.71
120	CC(=NNc1ccc([N+](=O)[O-])cc1)c1ccc(-n2nncc2C(C)(C)C)cc1	0.7
